Screening data (PubChem)
HPGD block: HPGD (human) dehydrogenase inhibition; P15428; purified HPGD, NADH fluorescence kinetic, PGE2 substrate; Potency, µM, without a hit: top-dose activity change, negative = inhibition, actives largely listed as inhibitors; 150,000 tested, 4.3% active; active = well fitted inhibition curve with a large enough effect (not every such curve was filed as active); inconclusive = small, poorly fitted or top-dose-only effect, or another doubt; inactive = no such curve, though single readings can be large or run the other way;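 also: top concentration of the series not given in the record; plate controls included wells without enzyme; inactives centre near -10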
Target sequence (P15428 whole entry, looked up): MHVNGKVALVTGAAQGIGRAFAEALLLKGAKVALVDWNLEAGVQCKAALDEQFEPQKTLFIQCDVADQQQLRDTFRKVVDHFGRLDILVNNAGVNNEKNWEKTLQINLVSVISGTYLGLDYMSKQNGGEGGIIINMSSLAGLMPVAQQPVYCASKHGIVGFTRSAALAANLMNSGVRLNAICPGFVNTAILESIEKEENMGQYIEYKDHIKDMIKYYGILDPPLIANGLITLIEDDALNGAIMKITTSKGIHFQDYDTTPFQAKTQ
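NADH formation kinetics: reaction with 30 uM PGE2 and 1 mM NAD+ (final), 20 nM enzyme, Tris-HCl pH 8 with Tween 20, after 15 min compound preincubation at room temperature. Fluorescence change, last versus first of five reads.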
* hit, by the source's call; & = joins results of further samples. % is scaled to controls: 0 for no effect and ±100 for the full control effect; potency is read from the fitted curve at half-maximal effect.

Results for Cc1ccc2c3c(c(SCC(=O)Nc4nonc4C)nc2c1)CCCC3 ?
HPGD block: -12%

How did Cc1ccc(NC(=O)CNC(c2ccccc2)c2ccccc2)c(F)c1 do in these assays?
HPGD block: -18%

What do the screens show for `O=C(Cc1cccs1)Nc1nc2c(ccc3ccccc32)s1`?
HPGD block: inconclusive

How did Cc1ccc(C)c(OCC(=O)Nc2c[nH]c(=O)[nH]c2=O)c1 do in these assays?
HPGD block: -9%

Results for Cc1cc(N)n2ncc(-c3ccc(Cl)cc3)c2n1 ?
HPGD block: inconclusive

What do the screens show for `COc1ccc2c(C)cc(SCc3c(C)noc3C)nc2c1`?
HPGD block: inconclusive

How did CN(c1ccccc1)S(=O)(=O)c1ccc(Cl)c(C(=O)Nc2ccc(-c3nc4ccccc4[nH]3)cc2)c1 do in these assays?
HPGD block: inconclusive

How did O=C(NCC1CCCO1)C1CCC(CNS(=O)(=O)c2ccccc2)CC1 (configuration not stated) do in these assays?
HPGD block: -9%

Results for COc1ccc(-c2nc(=S)c3c(n2CCN2CCOCC2)CC(C)(C)OC3)cc1 ?
HPGD block: -9%

What do the screens show for `CCC1=Nc2ccccc2NC2=C1C(=O)CCC2`?
HPGD block: -20%

What do the screens show for `O=C(N/N=C/c1cn(-c2cccs2)nc1-c1ccccc1)c1ccccc1O`?
HPGD block: inconclusive

What do the screens show for `Cc1ccc(S(=O)(=O)/N=C2\SC(CC(=O)Nc3ccc(F)cc3)C(=O)N2c2ccccc2)cc1` (configuration not stated)?
HPGD block: -20%

Results for COc1ccc2c(c1)C(NC(=O)C(F)(F)F)CC2=O (configuration not stated) ?
HPGD block: -1%

How did COc1ccc(CCNC(=O)CSc2cn(Cc3cccc(C)c3)c3ccccc23)cc1OC do in these assays?
HPGD block: -12%

Results for CCSc1ccccc1C(=O)N1CCN(Cc2ccc3c(c2)OCO3)CC1 ?
HPGD block: -13%

Results for CCC/C=C(\CCC)C(NC(=O)c1ccc(C(=O)OC)cc1)c1ccc(C(=O)OC)cc1 (configuration not stated) ?
HPGD block: -11%

How did O=c1cc(-c2ccccc2)[nH]c2ccccc12 do in these assays?
HPGD block: 13µM*

What do the screens show for `O=C(O)CCCC/C=C\C[C@@H](O)/C=C/C=C/C=C\[C@@H](O)CCCC(=O)O`?
HPGD block: -15%

What do the screens show for `Cc1nc2sc(C)c(C)c2c(=O)[nH]1`?
HPGD block: -13%

Results for COc1ccc(/C(C)=N\NS(=O)(=O)c2ccccc2)cc1OC ?
HPGD block: -10%

Results for COc1nccnc1NS(=O)(=O)c1ccc(NC(=S)NC(=O)c2ccc(F)c(F)c2)cc1 ?
HPGD block: -5%

Results for O=C(CCCC(=O)N/N=C\c1ccccn1)N/N=C\c1ccccn1 ?
HPGD block: 1%

How did CCOC(=O)c1ccc(NC(=O)CN2CCN(CCN=CC3=C(O)CC(C)(C)CC3=O)CC2)cc1 do in these assays?
HPGD block: -15%

How did O=C(CSc1c[nH]c2ccccc12)NCc1ccc2c(c1)OCO2 do in these assays?
HPGD block: -22%

What do the screens show for `O=C(Nc1ccccc1)c1ccccc1Oc1ccc(C(F)(F)F)cc1[N+](=O)[O-]`?
HPGD block: -13%

What do the screens show for `CCCS(=O)(=O)c1c(S(=O)(=O)CCC)c2cnccn2c1C(=O)c1ccc(F)cc1`?
HPGD block: -4%

How did Cc1nc(N)nc(OCC(F)(F)C(F)F)c1Br do in these assays?
HPGD block: -5%

Results for CNC(=S)NNC(=O)Cc1ccccc1 ?
HPGD block: -10%

Results for CNC(=O)NC(=O)COC(=O)CCCSc1nc2ccccc2s1 ?
HPGD block: -14%

What do the screens show for `O=C(NCCN1CCN(C(=O)c2cccs2)CC1)c1cccs1`?
HPGD block: 1%

What do the screens show for `COc1ccc(CNc2ccc(C(=O)O)cc2)cc1`?
HPGD block: -12%

Results for CCC(C)Oc1nc(C)cc(C)c1S(=O)(=O)c1ccccc1C (configuration not stated) ?
HPGD block: -2%

Results for COc1ccccc1-n1cnc2cc(NCc3ccco3)ccc21 ?
HPGD block: inconclusive

How did Cc1ccc(C(C)C)c2oc(=O)cc(-c3ccc(-c4ccc(C(F)(F)F)cc4)cc3)c12 do in these assays?
HPGD block: -15%

Results for COc1ccc(N2C(=O)CC(N3CCC(C(N)=O)CC3)C2=O)cc1 (configuration not stated) ?
HPGD block: -15%

How did COc1ccc(S(=O)(=O)NN=C2CCCC2)cc1 do in these assays?
HPGD block: 0%

How did CCn1c(COc2ccc(Cl)cc2)nnc1SCc1nc2ccccc2[nH]1 do in these assays?
HPGD block: -17%

How did Cc1cc([N+](=O)[O-])nn1CCCC(=O)NC(C)c1ccccc1 (configuration not stated) do in these assays?
HPGD block: -16%

Results for CCC(C)(C)n1nnnc1C(c1cc2cc(C)ccc2[nH]c1=O)N1CCCc2ccccc21 (configuration not stated) ?
HPGD block: -5%

Results for O=C(Nc1ccccc1Br)C1CCN(C(=O)Cc2ccccc2)CC1 ?
HPGD block: -22%

What do the screens show for `CC(=O)N1CCC(=NNc2ccc(S(=O)(=O)N3CCOCC3)cc2[N+](=O)[O-])CC1`?
HPGD block: -11%

How did N#Cc1nc(-c2ccccc2F)oc1NCCc1ccccc1 do in these assays?
HPGD block: inconclusive

Results for Cc1ccc(NC(=O)/C(C#N)=C/c2cccs2)c(C)c1 ?
HPGD block: -7%

Results for CC1(C)Nc2ccccc2N(CC(=O)N2CCCCC2)C1=O ?
HPGD block: -1%

How did Cc1nn(C)cc1CNC(=O)C1(C)CC1(Cl)Cl (configuration not stated) do in these assays?
HPGD block: -24%

How did COc1ccc2c(c1)C(C1=C(O)CC(C)(C)CC1=O)C1=C(CC(C)(C)CC1=O)O2 (configuration not stated) do in these assays?
HPGD block: -9%

What do the screens show for `COC(=O)C1Cc2c([nH]c3ccccc23)CN1` (configuration not stated)?
HPGD block: inconclusive

How did O=C(CSc1nnc(-c2ccc(Br)cc2)n1CCc1ccccc1)NC1CCS(=O)(=O)C1 (configuration not stated) do in these assays?
HPGD block: 0%

What do the screens show for `COc1ccc2c(c1)-c1c(sn(-c3ccccc3)c1=S)C(C)(C)N2`?
HPGD block: -2%

What do the screens show for `COC(=O)c1oc2ccc(Br)cc2c1NC(=O)CCCN1C(=O)c2ccccc2C1=O`?
HPGD block: -17%

What do the screens show for `COc1cccc(Cn2nnc(C(=O)Nc3ccc(C)cc3)c2N)c1`?
HPGD block: -34%

Results for CC1(C)C2CCC1(C)C(OC(=O)CC(=O)O)C2 (configuration not stated) ?
HPGD block: -8%

How did Cc1cccc2cc(CN(CCN3CCOCC3)C(=O)Nc3ccccc3F)c(=O)[nH]c12 do in these assays?
HPGD block: -15%

Results for c1ccc(COc2nsnc2N2CCOCC2)cc1 ?
HPGD block: -17%

How did CON/C=C(\C=Nc1ccc(C(F)(F)F)cc1)c1ncc(C(F)(F)F)cc1Cl do in these assays?
HPGD block: -10%

What do the screens show for `O=C(CS(=O)(=O)c1c[nH]c2ccccc12)NC1CCCCC1`?
HPGD block: -8%

How did Cc1nnc(NC(=O)CSc2cn(CCNC(=O)c3ccccc3)c3ccccc23)s1 do in these assays?
HPGD block: -1%

Results for CCc1ccc(N=CC23c4ccccc4C(c4ccccc42)C2C(=O)N(c4ccc(OC)cc4)C(=O)C23)cc1 (configuration not stated) ?
HPGD block: -8%

Results for CC(=O)NC1=NN(C(C)=O)C(C)(c2cccs2)S1 (configuration not stated) ?
HPGD block: 2%

Results for COc1ccc(C2c3c(ccc4ccccc34)Oc3ncn4nc(Cc5ccc(OC)c(OC)c5)nc4c32)cc1 (configuration not stated) ?
HPGD block: -16%

Entries shown so far with a CF3 group, in the order listed:
Results for COc1ccc2c(c1)C(NC(=O)C(F)(F)F)CC2=O (configuration not stated) ?
HPGD block: -1%

What do the screens show for `O=C(Nc1ccccc1)c1ccccc1Oc1ccc(C(F)(F)F)cc1[N+](=O)[O-]`?
HPGD block: -13%

How did Cc1ccc(C(C)C)c2oc(=O)cc(-c3ccc(-c4ccc(C(F)(F)F)cc4)cc3)c12 do in these assays?
HPGD block: -15%

How did CON/C=C(\C=Nc1ccc(C(F)(F)F)cc1)c1ncc(C(F)(F)F)cc1Cl do in these assays?
HPGD block: -10%

(more compounds)
Results for CCC1c2ccc(C)n2CCN1C(=O)Nc1cc(Cl)ccc1OC (configuration not stated) ?
HPGD block: -13%

How did CCCn1nnnc1SCC(=O)NCc1ccc2c(c1)OCO2 do in these assays?
HPGD block: -6%

What do the screens show for `Cc1nnc(SCC(=O)N(C(C)C)C(C)C)nc1C`?
HPGD block: -9%

What do the screens show for `Cc1cc(C)c(NC(=O)Cn2nc(-c3ccccc3)nc2-c2ccccc2)c(C)c1`?
HPGD block: -13%

How did Cc1ccc(N(Cc2ccco2)C(=O)c2ccc(N3CCCCC3)c([N+](=O)[O-])c2)cc1 do in these assays?
HPGD block: -18%

What do the screens show for `COc1ccc(OC)c(S(=O)(=O)Nc2ccccc2C(=O)O)c1`?
HPGD block: -11%

What do the screens show for `CC(C)(C)C(=O)NC1CCN(S(C)(=O)=O)CC1`?
HPGD block: -9%

How did COC(=O)c1cccc(NC(=O)CCCOc2ccccc2)c1 do in these assays?
HPGD block: -11%

Results for C[C@]12CCC(=O)C=C1CCC1C2C(O)C[C@]2(C)C1CC[C@]2(O)C(=O)COC(=O)CCC(=O)O (some centres not stated) ?
HPGD block: -11%

How did CN1[C@@H]2CC[C@H]1CC(OC(c1ccccc1)c1ccccc1)C2 (some centres not stated) do in these assays?
HPGD block: -6%&6%

Results for CSC1=NCCN1C(=O)COc1ccc2ccccc2c1 ?
HPGD block: 0%

What do the screens show for `COCCNC(=O)CS(=O)(=O)Cc1nc(-c2ccc(C)cc2)oc1C`?
HPGD block: -19%

What do the screens show for `O=C(/C=C\c1ccccc1OC(=O)c1ccccc1F)c1cc2ccccc2o1`?
HPGD block: 28µM*

Results for O=C1Nc2ccc(S(=O)(=O)N3CCCC3)c3ccc(S(=O)(=O)N4CCCC4)c1c23 ?
HPGD block: 1%

How did Cc1ccc2cc(C)c3nnc(SCC(=O)NCc4ccco4)n3c2c1 do in these assays?
HPGD block: -17%

Results for CCCc1ccc(-c2csc(NC(=O)Cc3cccs3)n2)cc1 ?
HPGD block: -3%

What do the screens show for `COc1ccc(C)cc1NC(=S)NNC(=O)c1ccccc1Cl`?
HPGD block: -1%

What do the screens show for `Cc1c(Cl)cccc1Nc1nc(N)nc(CN2CCc3ccccc3C2)n1`?
HPGD block: -3%

What do the screens show for `CC1=NC(=O)C(N=Nc2cccc(O)c2)N1c1ccccc1` (configuration not stated)?
HPGD block: -5%

How did COc1ccc(C(=O)Nc2c(F)c(F)c(F)c(F)c2F)c(OC)c1 do in these assays?
HPGD block: -3%

What do the screens show for `CCCCCCCCCCCCSCCOCCO`?
HPGD block: -6%

How did CCOc1cc(C(=O)CSc2nnc(CNc3ccc(Cl)cc3)o2)ccc1NC(=O)CC do in these assays?
HPGD block: -26%

Results for COc1ncc2ncc(=O)n(CCC#N)c2n1 ?
HPGD block: -19%

How did O=C(NC1CCCCCC1)c1cccnc1Sc1ccc(Cl)cc1 do in these assays?
HPGD block: -1%

How did CCc1cc2c(=O)c(-c3cscn3)coc2cc1OC do in these assays?
HPGD block: -2%

Results for Cc1ccc(C(C(=O)NC2CCCCC2)N(CC2CCCO2)C(=O)CNC(=O)c2cccs2)cc1 (configuration not stated) ?
HPGD block: -10%

How did COCCN(C(=O)C1CC1)c1nnc(-c2ccc(C)cc2)s1 do in these assays?
HPGD block: -4%

What do the screens show for `O=C(CCCc1ccccc1)Nc1cccnc1`?
HPGD block: 1%

Results for CCOc1ccc2nc(N3CCC(C(=O)Nc4nnc(CC)s4)CC3)sc2c1 ?
HPGD block: -11%

What do the screens show for `COc1ccc(NC(=O)CCCC(=O)OCC(F)(F)C(F)F)cc1`?
HPGD block: 2%

How did O=C1c2ccccc2-c2onc3ccc(NCCCn4ccnc4)c1c23 do in these assays?
HPGD block: -10%

Results for CN(C)CCNc1oc(/C=C/c2ccccc2)nc1C#N ?
HPGD block: inconclusive

Results for COc1cc2c(C(=O)NCCCN3CCN(c4cccc(Cl)c4)CC3)cn(C)c(=O)c2cc1OC ?
HPGD block: -16%

What do the screens show for `O=C1/C(=C/Nc2ccc3c(c2)OCO3)CCc2ccccc21`?
HPGD block: 25µM*

Results for CCc1nnc(NC(=O)CN2C(=O)CCC2=O)s1 ?
HPGD block: 1%

Results for O=c1c(-c2cccc(F)c2)nc2cncnc2n1Cc1ccccc1 ?
HPGD block: -19%

What do the screens show for `COC(=O)Oc1ccc(/C=N/NC(=O)CSCc2ccccc2Br)cc1OC`?
HPGD block: -5%

Results for COc1ccc(S(=O)(=O)/N=C2/NC(=O)/C(=C/c3ccco3)S2)cc1 ?
HPGD block: inconclusive

What do the screens show for `CCOC(=O)N1CCN(c2cc(C)c(C(C)=O)cc2F)CC1`?
HPGD block: -18%

Results for O=C(O)c1ccccc1NS(=O)(=O)c1ccc(F)c(Cl)c1 ?
HPGD block: -7%

How did COc1ccccc1C(=O)Nc1ccc(Oc2nnc(-c3ccc(C)cc3)c3ccccc23)cc1 do in these assays?
HPGD block: -6%

How did Cc1ccc(OCC(=O)N/N=C\c2cn(Cc3ccccc3)c3ccccc23)cc1C do in these assays?
HPGD block: inconclusive

How did Cc1ccc(-n2cccc2C(=S)N=P(N(C)C)(N(C)C)N(C)C)cc1 do in these assays?
HPGD block: inconclusive

Random excerpt: two compounds from above.
Results for COc1ncc2ncc(=O)n(CCC#N)c2n1 ?
HPGD block: -19%

Results for COc1cc2c(C(=O)NCCCN3CCN(c4cccc(Cl)c4)CC3)cn(C)c(=O)c2cc1OC ?
HPGD block: -16%

Grouped by structure, the entries above with a cyano group.
How did N#Cc1nc(-c2ccccc2F)oc1NCCc1ccccc1 do in these assays?
HPGD block: inconclusive

Results for Cc1ccc(NC(=O)/C(C#N)=C/c2cccs2)c(C)c1 ?
HPGD block: -7%

Results for COc1ncc2ncc(=O)n(CCC#N)c2n1 ?
HPGD block: -19%

Results for CN(C)CCNc1oc(/C=C/c2ccccc2)nc1C#N ?
HPGD block: inconclusive

A portion of the library; rates above refer to the full screens.
